Screens (PubChem)
MrgX1 agonist – agonists of human MrgX1 receptor, primary screen, HEK293 cells, Fluo-4 calcium flux. Mas-related G-protein coupled receptor member X1 (Homo sapiens), Q96LB2. Fluo-4 calcium fluorescence, agonist mode; hits give high values. B-score at 10 µM. hit rate 0.44% among 310,000;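 active = calcium response B-score plate-corrected fluorescence ratio at least 3 library SD, with starting fluorescence B-score inside 5 SD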
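Material – MrgX1-expressing HEK293 cells · Input – 15,000 cells seeded per well · Dosing – compound as first of three additions · Times – overnight seeding, then 1 h dark dye loading · Measured by – kinetic Fluo-4 NW fluorescence of intracellular calcium · Read-out – B-scored fluorescence response ratio · Benchmarks – positive and negative control wells on each plate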
TRPC4 act – activators of mouse TRPC4 channel, primary screen, Fluo4 calcium, HEK293 TRPC4beta/mu-opioid cells | Short transient receptor potential channel 4 (Mus musculus), Q9QUQ5 | Fluo4 calcium fluorescence; hits give high values | B-score at 10 µM | hit rate 0.49% among 310,000 | AID 2237, 2010;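 active = B-score above 5 SD of library B-scores, and initial fluorescence ratio not above library mean plus 5 SD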;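 note: positive B-score marks a calcium rise read as TRPC4 activation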
Target sequence (Q9QUQ5 whole entry, looked up): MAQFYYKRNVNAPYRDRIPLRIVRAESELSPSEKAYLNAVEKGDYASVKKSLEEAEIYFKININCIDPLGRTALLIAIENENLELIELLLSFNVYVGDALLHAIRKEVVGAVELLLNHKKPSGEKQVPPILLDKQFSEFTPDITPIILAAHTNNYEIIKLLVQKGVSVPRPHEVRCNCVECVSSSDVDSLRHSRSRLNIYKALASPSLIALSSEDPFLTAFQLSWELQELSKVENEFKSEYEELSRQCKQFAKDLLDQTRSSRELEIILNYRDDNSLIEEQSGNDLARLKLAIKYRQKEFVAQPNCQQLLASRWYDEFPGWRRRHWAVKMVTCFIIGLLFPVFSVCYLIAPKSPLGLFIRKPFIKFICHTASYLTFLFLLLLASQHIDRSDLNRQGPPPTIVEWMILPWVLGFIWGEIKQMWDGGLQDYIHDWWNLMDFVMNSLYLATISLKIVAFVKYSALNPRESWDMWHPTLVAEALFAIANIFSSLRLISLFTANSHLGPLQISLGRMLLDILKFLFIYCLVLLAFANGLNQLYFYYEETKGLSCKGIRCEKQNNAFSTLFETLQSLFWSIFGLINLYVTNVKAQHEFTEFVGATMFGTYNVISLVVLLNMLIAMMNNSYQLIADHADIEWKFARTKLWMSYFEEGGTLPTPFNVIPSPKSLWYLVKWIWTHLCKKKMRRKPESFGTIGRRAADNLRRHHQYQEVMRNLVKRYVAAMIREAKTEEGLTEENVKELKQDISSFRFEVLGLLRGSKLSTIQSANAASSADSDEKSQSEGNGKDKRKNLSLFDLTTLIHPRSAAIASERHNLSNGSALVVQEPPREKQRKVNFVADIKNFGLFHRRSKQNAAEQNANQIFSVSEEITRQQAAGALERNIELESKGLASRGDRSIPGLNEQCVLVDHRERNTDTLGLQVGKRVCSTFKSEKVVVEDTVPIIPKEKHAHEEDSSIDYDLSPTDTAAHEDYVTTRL
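Test system: HEK293 cells stably co-expressing mouse TRPC4beta and mu-opioid receptor | Schedule: Fluo4 dye loading 45 min at room temperature, 110 s recording | Measured by: Kinetic Fluo4 calcium fluorescence, 5 s baseline at 1 Hz | Evaluation: B score of integrated ratio | Controls: Buffer (low) and maximal DAMGO (high)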
MrgX1 allo act – positive allosteric modulators of MrgX1, primary screen, HEK293 cells, Fluo-4 calcium flux; FDSS; hits give high values; B-score at 10 µM; hit rate 0.63% among 310,000; AID 588675, 2011;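 active = plate-corrected calcium response at least 3 library SD above typical, normal starting fluorescence, not activating the receptor alone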;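 note: compound read alongside a low EC10 to EC30 dose of BAM8-22 agonist; peak minus trough fluorescence over baseline measured at the second addition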
TRPC4 inh – inhibitors of mouse TRPC4 channel, primary screen, Fluo4 calcium, HEK293 TRPC4beta/mu-opioid cells; Short transient receptor potential channel 4 (Mus musculus), Q9QUQ5; DAMGO-evoked Fluo4 calcium flux; hits give low values; B-score at 10 µM; hit rate 0.39% among 300,000; AID 2247, 2010;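 active = B-score over 3 SD under the library average, no early fluorescence shift, positive overall ratio signal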
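Assay system: TRPC4beta/mu-opioid receptor HEK293 cell line; compound dosing: single concentration per test compound; detection: Fluo4 Ca2+ flux fluorescence; evaluation: per-well B score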
TRPC6 act – mouse TRPC6 channel activators, primary screen, cell-based, HEK293, membrane potential dye. Short transient receptor potential channel 6 (Mus musculus), Q61143. HEK293-TRPC6 membrane potential dye fluorescence; hits give high values. B-score at 10 µM. hit rate 0.13% among 310,000;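 active = B-score of the integrated fluorescence ratio above library mean plus 3 SD, and starting fluorescence ratio within library mean plus 5 SD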;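 note: higher score means more depolarization so channel activation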
AI-2 QS modul – Vibrio harveyi AI-2 quorum sensing modulators, primary screen, JMH597 strain, luminescence/OD600 ratio | Vibrio harveyi JMH597 AI-2 luminescence/OD600 ratio, 9 h; hits give low values; strain lacks LuxN and CqsS sensors; 0 = neutral-control median | activity change, % at 7.5 µM | hit rate 0.4% among 300,000 | AID 2094, 2009; in the data active = activity change below about -75%, passing the limit was not always enough; inconclusive = no clear call, values can overlap the other calls;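 note: luminescence divided by OD600 gain over 9 h not by final OD600 alone; inactives centre near 13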
TRPC4 potent – positive allosteric modulators of TRPC4, primary screen, cell-based, mouse TRPC4beta, HEK293 mu-opioid, Fluo-4 calcium. B-score at 10 µM. Short transient receptor potential channel 4 (Mus musculus), Q9QUQ5. DAMGO EC20, Fluo-4 Ca2+ flux; hits give high values. hit rate 0.42% among 310,000;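 active = B-score of calcium response area above 5 SD of library B-scores, with initial fluorescence ratio within 5 SD of library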;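 note: B-score of integrated fluorescence ratio over time as area under calcium response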
MrgX1 antag – antagonists of human MrgX1 receptor, primary screen, HEK293 cells, Fluo-4 calcium flux; BAM8-22 antagonism; hits give low values; B-score at 10 µM; hit rate 1.3% among 310,000;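 active = calcium-response B-score plate-corrected more than 3 library SD below zero, starting fluorescence within 5 deviations, no agonist response on first addition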;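 note: peak minus trough fluorescence over baseline after final BAM8-22 challenge near maximal dose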
TRPC6 inh – mouse TRPC6 channel inhibitors, primary screen, cell-based, HEK293, membrane potential dye. ACh-evoked depolarization; hits give low values. B-score at 10 µM. hit rate 1.1% among 310,000. AID 2553, 2010;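 active = B-score under library mean minus 3 SD, initial fluorescence not abnormally high, positive integrated signal ratio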;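 note: B-score derived from integrated fluorescence ratio over the kinetic read; more negative B-score means stronger inhibition of depolarization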
PolyA inh – polyadenylation inhibitors in yeast reporter cells, primary screen, luminescence, S. cerevisiae. calls only at 12 µM. hit rate 0.02% among 300,000. S. cerevisiae SKY197-pL101 polyadenylation reporter, beta-gal luminescence; efflux-impaired pdr1/pdr3 knockout yeast; score 100 = 6 SD above DMSO;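 active = lowest replicate activity score at least 50, where 100 means six control SD above control mean; inconclusive = lowest score under 50 but half or more replicates reach 50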;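 note: yeast exposed to compound for 9 h at 30 °C; higher score means more reporter readthrough which indicates perturbed polyadenylation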
* hit, by the source's call; i = inactive; ? = inconclusive; · = not tested or not shown; & = joins results of further samples. Some of the compounds tested; rates above refer to the full screens.

The opening four records as a preview:
Assay codes – A = MrgX1 agonist; B = TRPC4 act; C = MrgX1 allo act; D = TRPC4 inh; E = TRPC6 act; F = AI-2 QS modul; G = TRPC4 potent; H = MrgX1 antag; I = TRPC6 inh; J = PolyA inh
compound: COc1cccc(-n2c(C)nc3ccccc3c2=O)c1
  A = i | B = i | C = i | D = i | E = i | F = 10 | G = i | H = i | I = i | J = i

compound: COc1ccc2c(c1OC)C(=O)OC2C1c2cc3c(cc2CCN1C)OCO3 (configuration not stated)
  A = i | B = i | C = i | D = i | E = i | F = 16 | G = i | H = i | I = i | J = i

compound: Nc1ncc(P(=S)(N2CCOCC2)N2CCOCC2)s1
  A = i | B = i | C = i | D = i | E = i | F = -4 | G = i | H = i | I = i | J = i

compound: CN1CCC(OC(=O)C2c3ccccc3Oc3ccccc32)CC1
  A = i | B = i | C = i | D = i | E = i | F = 0 | G = i | H = i | I = -6.8* | J = i

Results, from the start:
Assay codes – A = MrgX1 agonist; B = TRPC4 act; C = MrgX1 allo act; D = TRPC4 inh; E = TRPC6 act; F = AI-2 QS modul; G = TRPC4 potent; H = MrgX1 antag; I = TRPC6 inh; J = PolyA inh
compound: COc1cccc(-n2c(C)nc3ccccc3c2=O)c1
  A = i | B = i | C = i | D = i | E = i | F = 10 | G = i | H = i | I = i | J = i

compound: COc1ccc2c(c1OC)C(=O)OC2C1c2cc3c(cc2CCN1C)OCO3 (configuration not stated)
  A = i | B = i | C = i | D = i | E = i | F = 16 | G = i | H = i | I = i | J = i

compound: Nc1ncc(P(=S)(N2CCOCC2)N2CCOCC2)s1
  A = i | B = i | C = i | D = i | E = i | F = -4 | G = i | H = i | I = i | J = i

compound: CN1CCC(OC(=O)C2c3ccccc3Oc3ccccc32)CC1
  A = i | B = i | C = i | D = i | E = i | F = 0 | G = i | H = i | I = -6.8* | J = i

compound: CCCN1CCC[C@@H]2Cc3[nH]ncc3C[C@H]21
  A = i | B = i | C = i | D = i | E = i | F = 0 | G = i | H = i | I = i | J = i

compound: CC(C)C(=O)N1CCN(CCN=Cc2c(O)n(C)c(=O)n(C)c2=O)CC1
  A = i | B = i | C = i | D = i | E = i | F = 28 | G = i | H = i | I = i | J = i

compound: CC(C)C[C@H]1C(=O)N2CCCC2[C@]2(O)O[C@](NC(=O)[C@@H]3C=C4c5cccc6[nH]cc(c56)CC4N(C)C3)(C(C)C)C(=O)N12 (some centres not stated)
  A = i | B = i | C = i | D = i | E = i | F = 29 | G = i | H = i | I = i | J = i

compound: CCCCSP1(=S)NCCCO1 (configuration not stated)
  A = i | B = i | C = i | D = i | E = i | F = 15 | G = i | H = i | I = i | J = i

compound: CCN(CC)CCCC(C)N=C(c1ccccc1)c1c(O)n(C)c(=O)n(C)c1=O (configuration not stated)
  A = i | B = i | C = i | D = i | E = i | F = 20 | G = i | H = i | I = i | J = i

compound: COc1ccn(C)c(=O)c1C#N
  A = i | B = i | C = i | D = i | E = i | F = -7 | G = i | H = i | I = i | J = i

compound: CN(C)[C@@H]1C(=O)C(C(N)=O)=C(O)[C@@]2(O)C(=O)C3=C(O)c4c(O)cccc4[C@@](C)(O)[C@H]3[C@H](O)[C@@H]12
  A = i | B = i | C = i | D = i | E = i | F = 20&19 | G = i | H = i | I = i | J = i

compound: Cc1c(N=Cc2c(O)n(Cc3ccco3)c(=O)[nH]c2=O)c(=O)n(-c2ccccc2)n1C
  A = i | B = i | C = i | D = i | E = i | F = 34 | G = i | H = i | I = i | J = i

compound: Oc1ccc2c3c1O[C@H]1c4[nH]c5ccccc5c4C[C@@]4(O)[C@@H](C2)N(CC2CC2)CC[C@]314
  A = i | B = · | C = i | D = · | E = · | F = · | G = · | H = i | I = · | J = ·

compound: Oc1ccc2c3c1OC1C(O)CC[C@@]4(O)[C@@H](C2)N(CC2CCC2)CC[C@]314 (some centres not stated)
  A = i | B = i | C = i | D = i | E = i | F = 11 | G = i | H = i | I = i | J = i

compound: C[N+]1(C)[C@@H]2CC(OC(=O)[C@H](CO)c3ccccc3)C[C@H]1[C@@H]1O[C@@H]12 (some centres not stated)
  A = i | B = i | C = i | D = i | E = i | F = 19 | G = i | H = i | I = -8.2* | J = i

compound: C#C[C@]1(O)CC[C@H]2[C@@H]3CCC4=CC(=O)CC[C@]4(C)[C@H]3CC[C@@]21C
  A = i | B = i | C = i | D = i | E = i | F = 10 | G = i | H = i | I = i | J = i

compound: COc1ccc2c(c1)c(C(=O)O)c(C)n2CC(C)C
  A = i | B = i | C = i | D = i | E = i | F = 20 | G = i | H = i | I = i | J = i

compound: COc1ccc(Cn2c(O)c(C=NCCCn3ccnc3)c(=O)[nH]c2=O)cc1
  A = i | B = i | C = i | D = i | E = i | F = 41 | G = i | H = i | I = i | J = i

compound: O=C(O)CC1OCC=C2CN3CCC45c6ccccc6NC4C1C2CC35 (configuration not stated)
  A = i | B = i | C = i | D = i | E = i | F = 4 | G = i | H = i | I = i | J = i

compound: CN1CCN(C(=O)OC2c3nccnc3C(=O)N2c2ccc(Cl)cn2)CC1 (configuration not stated)
  A = i | B = i | C = i | D = i | E = i | F = 12 | G = i | H = i | I = i | J = i

compound: CC1=CC(=O)C2=C(C)CC(O)C3C(C)C(=O)OC3C12 (configuration not stated)
  A = i | B = i | C = i | D = i | E = i | F = 32 | G = i | H = i | I = i | J = i

compound: C=CC12CN(C)[C@@H]3C4CO[C@H](C[C@H]41)[C@]1(C(=O)Nc4ccccc41)[C@@H]32 (some centres not stated)
  A = i | B = i | C = i | D = i | E = i | F = 13 | G = i | H = i | I = i | J = i

compound: CC(C)C[C@H]1C(=O)N2CCC[C@H]2[C@]2(O)O[C@](NC(=O)[C@@H]3C=C4c5cccc6[nH]cc(c56)C[C@H]4N(C)C3)(C(C)C)C(=O)N12
  A = i | B = · | C = i | D = · | E = · | F = · | G = · | H = i | I = · | J = ·

compound: CN(C)C1C(=O)C(C(N)=O)=C(O)C2(O)C(=O)C3=C(O)c4c(O)cccc4C(C)(O)C3C(O)C12 (configuration not stated)
  A = i | B = i | C = i | D = i | E = i | F = ? | G = i | H = i | I = i | J = i

compound: C[C@@H](N)Cc1cnc[nH]1
  A = i | B = 197* | C = i | D = i | E = i | F = 9 | G = i | H = i | I = i | J = i

compound: C[C@@H]1O[C@@H](O[C@H]2C[C@@H](O)[C@]3(CO)[C@H]4[C@H](O)C[C@]5(C)[C@@H](C6=CC(=O)OC6)CC[C@]5(O)[C@@H]4CC[C@]3(O)C2)[C@H](O)[C@H](O)[C@H]1O
  A = i | B = i | C = i | D = i | E = i | F = 13 | G = i | H = i | I = i | J = i

compound: CCCCC1(CN2CCCC2=O)C(=O)NC(=O)NC1=O
  A = i | B = i | C = i | D = i | E = i | F = 6 | G = i | H = i | I = i | J = i

compound: CCOCCN1CCC(OC(C)=O)C(C)C1 (configuration not stated)
  A = i | B = i | C = i | D = i | E = i | F = 20 | G = i | H = i | I = i | J = i

compound: Cc1cccc(C)c1NC1=NCCCS1
  A = i | B = i | C = i | D = i | E = i | F = 3 | G = i | H = i | I = i | J = i

compound: CC(=O)C1(c2ccccc2)CCNCC1
  A = i | B = i | C = i | D = i | E = i | F = 37 | G = i | H = i | I = i | J = i

compound: O=C1NC(=O)C(C/C=C/c2ccccc2)C(=O)N1
  A = i | B = i | C = i | D = i | E = i | F = 28 | G = i | H = i | I = i | J = i

compound: CC1=C2C(=O)C3C(CC=C4CC(O)CCC43C)C2CCC12OC1CC(C)CNC1C2C (configuration not stated)
  A = i | B = i | C = i | D = i | E = i | F = 4 | G = i | H = i | I = i | J = i

compound: CCCSP1(=S)NCCCO1 (configuration not stated)
  A = i | B = i | C = i | D = i | E = i | F = -7 | G = i | H = i | I = i | J = i

compound: C=CCn1c(O)c(C=NCCN(C)C)c(=O)[nH]c1=O
  A = i | B = i | C = i | D = i | E = i | F = 8 | G = i | H = i | I = i | J = i

compound: CN1CCc2c(c(N3CCCCC3)nc3n[nH]c(N)c23)C1
  A = i | B = i | C = i | D = i | E = i | F = 18 | G = i | H = i | I = i | J = i

compound: CCCN1CCc2cc(O)cc3c2[C@H]1Cc1ccc(O)c(O)c1-3
  A = 31* | B = i | C = i | D = i | E = i | F = 16 | G = i | H = i | I = i | J = i

compound: COc1ccc(CN2CCNCC2)c(OC)c1OC
  A = i | B = i | C = i | D = i | E = i | F = 1 | G = i | H = i | I = i | J = i

compound: Cc1ccc(C)c(C2(O)CC(C)N(C)CC2C)c1 (configuration not stated)
  A = i | B = i | C = i | D = i | E = i | F = -5 | G = i | H = i | I = i | J = i

compound: O=C1CC[C@@]2(O)[C@H]3Cc4ccc(O)c5c4[C@@]2(CCN3CC2CC2)[C@H]1O5
  A = i | B = i | C = i | D = i | E = i | F = 16 | G = i | H = i | I = i | J = i

compound: O[C@@H]1CCCC[C@H]1N1CCC(c2ccccc2)CC1
  A = i | B = i | C = i | D = i | E = i | F = 6 | G = i | H = i | I = i | J = i

compound: Clc1ccc(COC(Cn2ccnc2)c2ccc(Cl)cc2Cl)cc1 (configuration not stated)
  A = i | B = i | C = i | D = i | E = i | F = 54 | G = i | H = i | I = i | J = i

compound: COC1=CC(=O)OC(/C=C/c2ccccc2)C1 (configuration not stated)
  A = i | B = i | C = i | D = i | E = i | F = -28 | G = i | H = i | I = i | J = i

compound: CN(C)[C@@H]1C(=O)C(C(N)=O)=C(O)[C@@]2(O)C(=O)C3=C(O)c4c(O)cccc4[C@@](C)(O)[C@H]3C[C@@H]12
  A = i | B = i | C = i | D = i | E = i | F = 38 | G = i | H = i | I = i | J = i

compound: O=C(O)CN1C(=O)CN=C(c2ccccn2)c2cc(Cl)ccc21
  A = i | B = i | C = i | D = i | E = i | F = 0 | G = i | H = i | I = i | J = i
